H5N1 antiviral = MDCK cell protection from H5N1 avian flu. cytopathic effect, luminescence, 72 h; hits give high values; no value below 0 was filed and about half of the inactive calls have no number; reference of the scale not given here. inhibition, % at 50 µM. actives 0.07% (n = 96,000). AID 740, 2007; in the data active means inhibition above about 25%
* hit, by the source's call; i = inactive.

Start of the data: the first 18 records, ahead of the listing:
SMILES	H5N1 antiviral
Nc1cccc(-n2nncc2-c2ccc(Cl)cc2)c1	2.7
Cc1nn2c(-c3cccc(NC(=O)CSc4nc5ccccc5o4)c3)nnc2c2ccccc12	1.5
Cc1ccccc1S(=O)(=O)Cc1ccc(C(=O)NCCN2CCCCC2C)o1 (stereo unspecified)	0.4
O=C(CN1CCOCC1)Nc1cccc(Cl)c1Cl	0.3
COC(=O)c1cccc(OCC(O)Cn2cnc3cc(C)c(C)cc32)c1 (stereo unspecified)	0.6
CC1CN(C(=O)N2c3ccccc3Sc3ccccc32)C(C)CC1=O (stereo unspecified)	0.8
CCN1CCCC1CNC(=O)c1csc2c1CCCC2 (stereo unspecified)	i
O=C(Nc1nnc(-c2cccs2)o1)c1cccc(Oc2ccccc2)c1	2.5
COc1ccc(OC)c(N(CC(=O)Nc2ccccc2)S(C)(=O)=O)c1	i
CC(=O)N(CCc1ccccc1C)Cc1cc2cc3c(cc2[nH]c1=O)OCO3	i
Cc1c(Cl)cccc1NC(=S)NNc1ncc(C(F)(F)F)cc1Cl	i
O=C(Nc1ccc2ccccc2c1)c1onc2c1CCCC2	i
CCOC(=O)c1c(O)c2ccccc2n(-c2ccccc2)c1=O	0.8
c1ccc2c(c1)CNC1(CCCCC1)C2	i
CCOc1ccccc1C1C(C(=O)Nc2ccccc2OC)=C(C)Nc2nnnn21 (stereo unspecified)	2.0
C=CCn1c(COc2ccc(Cl)cc2)nnc1SCC(=O)N/N=C/c1cccc(O)c1	0.9
CN1C(=O)NC(c2ccccc2)C2=C1CN(c1ccc3ccccc3c1)C2=O (stereo unspecified)	i
CCn1cc(C2=NOC(C(=O)Nc3ccc4c(c3)OCO4)C2)c(C)n1 (stereo unspecified)	2.9

The whole of this part, from the first entry:
SMILES	H5N1 antiviral
Nc1cccc(-n2nncc2-c2ccc(Cl)cc2)c1	2.7
Cc1nn2c(-c3cccc(NC(=O)CSc4nc5ccccc5o4)c3)nnc2c2ccccc12	1.5
Cc1ccccc1S(=O)(=O)Cc1ccc(C(=O)NCCN2CCCCC2C)o1 (stereo unspecified)	0.4
O=C(CN1CCOCC1)Nc1cccc(Cl)c1Cl	0.3
COC(=O)c1cccc(OCC(O)Cn2cnc3cc(C)c(C)cc32)c1 (stereo unspecified)	0.6
CC1CN(C(=O)N2c3ccccc3Sc3ccccc32)C(C)CC1=O (stereo unspecified)	0.8
CCN1CCCC1CNC(=O)c1csc2c1CCCC2 (stereo unspecified)	i
O=C(Nc1nnc(-c2cccs2)o1)c1cccc(Oc2ccccc2)c1	2.5
COc1ccc(OC)c(N(CC(=O)Nc2ccccc2)S(C)(=O)=O)c1	i
CC(=O)N(CCc1ccccc1C)Cc1cc2cc3c(cc2[nH]c1=O)OCO3	i
Cc1c(Cl)cccc1NC(=S)NNc1ncc(C(F)(F)F)cc1Cl	i
O=C(Nc1ccc2ccccc2c1)c1onc2c1CCCC2	i
CCOC(=O)c1c(O)c2ccccc2n(-c2ccccc2)c1=O	0.8
c1ccc2c(c1)CNC1(CCCCC1)C2	i
CCOc1ccccc1C1C(C(=O)Nc2ccccc2OC)=C(C)Nc2nnnn21 (stereo unspecified)	2.0
C=CCn1c(COc2ccc(Cl)cc2)nnc1SCC(=O)N/N=C/c1cccc(O)c1	0.9
CN1C(=O)NC(c2ccccc2)C2=C1CN(c1ccc3ccccc3c1)C2=O (stereo unspecified)	i
CCn1cc(C2=NOC(C(=O)Nc3ccc4c(c3)OCO4)C2)c(C)n1 (stereo unspecified)	2.9
COc1ccc(-c2nnc(SCC(=O)N3CCc4ccccc4C3)o2)cc1	i
O=C(COc1ccc(S(=O)(=O)NC2CCCCC2)cc1)NCc1ccccn1	i
COc1ccc(NC(=O)c2ccccc2Cl)cc1NC(=O)CN1CCOCC1	1.4
N#Cc1ccccc1Cn1c(=O)n(Cc2ccc(C(=O)NCc3ccco3)cc2)c(=O)c2sccc21	i
CC(=O)Nc1ccc(NC(=O)CN(c2cccc(C)c2)S(C)(=O)=O)cc1	0.3
CCC(=O)N1CCN=C1SCc1ccc(F)cc1	3.1
CCOC(=O)N1CCN(S(=O)(=O)c2ccc(C(=O)Nc3nc4ccc(F)cc4s3)cc2)CC1	i
CCOC(=O)N1CCN(C(=O)CCCOc2ccccc2)CC1	1.1
OCc1nc2ccccc2n1CC(O)Cn1ccc2ccccc21 (stereo unspecified)	i
CC(C)NC(=O)c1ccccc1NC(=O)/C=C/c1ccc([N+](=O)[O-])cc1	0.3
COc1ccc(C(=O)Nc2ccc3c(c2)nc(CCNC(C)=O)n3C)cc1	i
COc1ccc(OCC(O)CNCc2ccco2)cc1 (stereo unspecified)	i
O=C(c1cccc(F)c1)N1CCN(C2CCCCC2)CC1	i
COC(=O)NCc1cc2cc(Cl)ccc2[nH]1	i
Cc1cccc(-n2nc3c(c2NC(=O)c2ccc(S(=O)(=O)N4CCOCC4)cc2)CSC3)c1C	1.1
Cc1ccc(S(=O)(=O)n2nc(OC(=O)c3cccs3)cc2N)cc1	0.1
COc1ccc(C=O)cc1COc1c(F)c(F)cc(F)c1F	1.2
CCCC(=O)Nc1nc2ccc(C(=O)OCC)cc2s1	0.1
O=C(c1ccc(Cn2cc(Cl)cn2)o1)N1CCN(Cc2ccc3c(c2)OCO3)CC1	0.1
CC1(C)NC(=O)N(CN2C(=O)NC(C)(C)C2=O)C1=O	i
CC(C)C(=O)Nc1ccc2c(c1)oc1ccccc12	i
C=CCn1c(SCC#N)nc2ccccc2c1=O	i
Cc1oc2cc3oc(=O)c4c(c3cc2c1C)CCC4	1.0
O=C(O)Cc1ccc(C(=O)c2ccc(F)cc2)s1	0.7
N#CCCCCN1c2cccc3cccc(c23)S1(=O)=O	i
COc1cccc(NC(=O)[C@@H]2CCCN2C(=O)C2CCN(S(=O)(=O)c3ccc(C)cc3)CC2)c1	i
COc1ccc(-c2oc(NC(C)=O)c(C#N)c2-c2ccc(OC)cc2)cc1	0.4
CCOC(=O)N1CCN(C(=O)COc2ccc(Br)cc2)CC1	i
CC(=O)Nc1ccc(S(=O)(=O)N2CCN(CCCOc3ccccc3Cl)CC2)cc1	i
COc1ccc(/C=N/NC(N)=S)cc1OC(=O)c1ccccc1	i
COc1cccc(N2CCCn3c2nc2c3c(=O)n(CCN3CCOCC3)c(=O)n2C)c1	i
Cc1ccc(-c2cn(-c3ccccc3)c3[n+]2CCCS3)cc1	0.2
(cont.)
SMILES	H5N1 antiviral
CCOC(=O)C1CCN(c2ncnc3c2cnn3-c2ccc(OC)cc2)CC1	i
CCC(=O)NC1=C(NC(C)c2ccccc2)C(=O)c2ccccc2C1=O (stereo unspecified)	0.3
Cc1nonc1NC(=O)CSc1ccc(-c2ccccc2)nn1	i
COc1ccc(CCNC(=O)Cn2c(=O)oc3ccccc32)cc1OC	i
CCOC(=O)C(NC=O)(NC(C)(C)C)C(=O)OCC	0.5
Cc1cccc(N2CCN(C(=O)c3ccc(NC(=O)C4CCCO4)cc3)CC2C)c1 (stereo unspecified)	0.4
O=C(C1COc2ccccc2O1)N1CCc2ccccc21 (stereo unspecified)	i
CCn1c(Cn2nnc(-c3ccccc3)n2)nnc1SCC(=O)Nc1cccc(C(C)=O)c1	i
Cn1c(Cn2c(=O)sc3ccccc32)nnc1SCC(=O)Nc1ccc(F)cc1	0.7
Cc1ccc(-c2cn3nc(C)c(C)nc3n2)cc1	0.3
COc1cccc(C2CC(c3c(Cl)cccc3Cl)n3nc(N)nc3N2)c1 (stereo unspecified)	2.1
Oc1ccc(Cl)cc1CN1CCN(Cc2ccccc2)CC1	0.8
CC(C)CCN1C(=O)c2ccc(C(=O)OCn3nnc4ccccc4c3=O)cc2C1=O	0.6
CCc1cc(=O)oc2cc(OCC(N)=O)c(Cl)cc12	3.0
CCc1ccc(C(=O)CCC2CCCCC2=O)cc1 (stereo unspecified)	i
CCc1ccccc1NC(=O)CSc1nc2c(c(-c3ccco3)c1C#N)CCCC2	i
C=CCC1c2cccc(C(=O)O)c2C(=O)N1c1cccc(C)c1 (stereo unspecified)	i
COc1ccccc1NC(=O)CN(Cc1ccco1)C(=O)c1cccs1	i
O=C(COc1ccc(F)cc1)NC1CC1	i
Cc1ccc2c(c1)N(CC(=O)N1CCCc3ccccc31)C(=O)C(C)O2 (stereo unspecified)	0.1

2 of these compounds in another layout:
smiles | H5N1 antiviral
C=CCC1c2cccc(C(=O)O)c2C(=O)N1c1cccc(C)c1 (stereo unspecified) | i
CCc1ccccc1NC(=O)CSc1nc2c(c(-c3ccco3)c1C#N)CCCC2 | i

The results go on:
SMILES	H5N1 antiviral
CCC(=O)N(CCCN(C)C)c1nc(-c2cc(OC)ccc2OC)cs1	i
COc1cc(C(=O)Nc2nc(-c3cccs3)cs2)cc(OC)c1OC	i
CC(C)c1cc(C(=O)NCc2cccnc2)no1	i
CC1(O)CC(=O)N(c2ccccc2)O1 (stereo unspecified)	i
Cc1ccc(C(=O)Nc2nc3ccccc3n3nnnc23)cc1	i
CCCCC(c1nnnn1CCOC)N1CCN(C(=O)c2ccco2)CC1 (stereo unspecified)	2.3
Cc1ccc(-c2nn(-c3ccccc3)cc2/C=N/NC(=O)c2ccc(Br)o2)cc1	5.3
COc1ccc(C2(O)CCN(Cc3nnnn3Cc3ccc(F)cc3)CC2)cc1	i
Cc1nc2cc(N3CCCCC3)c(NC(=O)c3ccncc3)cc2c(=O)n1Cc1ccc(Cl)cc1	i
O=C(CCn1nc(-c2ccc(Cl)cc2)ccc1=O)NCc1cccnc1	1.2
CCOC(=O)c1c(C)nc2c(c1-c1cc(OC)ccc1OC)C(=O)c1ccccc1-2	1.5
COc1ccc(-c2nnn(Cc3nn[nH]n3)n2)cc1OC	i
COc1cc(C(=O)Nc2ccncc2)cc(OC)c1OC	1.2
Nc1nonc1-c1noc(N2CCCCC2)n1	i
CC(=O)CC(C)(C)n1nnc(-c2ccccc2)n1	i
COc1ccc(CNC(=O)c2ccc(NC(=O)CC3SC(N4CCCC4)=NC3=O)cc2)cc1 (stereo unspecified)	0.6
Oc1ccccc1-c1cc(-c2ccc3c(c2)OCCO3)n[nH]1	0.8
O=c1c2ccccc2oc2nc(C3CCCCC3)n(Cc3ccco3)c(=O)c12	1.4
Cn1c(=O)[nH]c(=O)c2c1nc(NCCCn1ccnc1)n2Cc1ccccc1	0.9
COc1cccc(CN2CCN(CC(=O)Nc3ccccc3Cl)CC2)c1	i
COc1ccc(NC(=O)CSc2ncnc3c2cnn3Cc2ccccc2)cc1	i
O=C(COC(=O)c1n[nH]c2ccccc12)NCc1ccccc1	i
C/C(=N\NC(=O)C1CCCN(S(=O)(=O)c2ccccc2)C1)c1ccncc1 (stereo unspecified)	0.2
CC1=CC2=NCC(O)CN2C=C1 (stereo unspecified)	0.6
CS(=O)(=O)Nc1ccc(N2CCCCC2)c(Cl)c1	i
COC(=O)c1ccc(C)c(NC(=O)Cn2cnc3ccccc3c2=O)c1	0.9
CCN(CC)S(=O)(=O)c1cccc2nsnc12	0.2
CCN(CC)CCNC(=O)CS(=O)Cc1nc(-c2ccccc2Cl)oc1C (stereo unspecified)	0.6
Cc1nnc(SCc2nc3ccccc3c(=O)n2-c2ccccc2Cl)n1N	1.2
CN1CCC(OC(=O)C23CCC(C)(C(=O)O2)C3(C)C)CC1 (stereo unspecified)	i
Nc1c(C(=O)NCc2ccco2)c2nc3ccccc3nc2n1CCc1ccccc1F	8.3
Nc1ccc(-c2nc3c(Cl)cc(N)cc3[nH]2)cc1	4.6
CCCSCCCNC(=O)c1cc2c(s1)CS(=O)(=O)C2	0.8
O=C(Nc1ccccc1)c1ccc(NCCN2CCOCC2)c(S(=O)(=O)N2CCOCC2)c1	1.4
CCOC(=O)COc1ccc(C2NC(C(=O)O)CS2)cc1 (stereo unspecified)	i
Cc1c(C(=O)N(Cc2cccs2)C2CCS(=O)(=O)C2)oc2ccccc12 (stereo unspecified)	i
O=C(Oc1cc(-c2ccccc2)no1)c1ccc(F)cc1	0.2
COc1cc(N)cc(NC(=O)c2ccncc2)c1	i
O=C(CSc1nnc(Cc2cc(=O)[nH]c(=O)[nH]2)n1-c1ccccc1)NCC1CCCO1 (stereo unspecified)	0.5
CCn1nc(C(=O)Nc2cccc(C(F)(F)F)c2)c(Cl)c1Cl	i
Cc1cccn2c(=O)c3cc(C(=O)NCCCn4ccnc4)n(C)c3nc12	0.8
O=C1c2sc3nc4n(c(=O)c3c2CCC1Br)CCCCC4 (stereo unspecified)	10.1
Cc1cc(=O)[nH]c(-n2[nH]c(C)cc2=O)n1	0.3
Cc1ccc(SCCNC(=O)CN(c2ccc3c(c2)OCO3)S(C)(=O)=O)cc1	0.6
O=C(NCCN1CCOCC1)C1CCN(c2ncnc3c2sc2cccc(F)c23)CC1	1.1
CCOC(=O)C1=C(C)NC(=O)N(C(C)=O)C1c1ccc(Cl)cc1 (stereo unspecified)	1.3
CN1CCN(C(=O)C23CC4CC(CC(C4)C2)C3)CC1	i
O=C(Cc1c(F)cccc1Cl)Nc1cccnc1	0.7
O=C(CCCN1C(=O)c2ccccc2C1=O)Nc1ccc(S(=O)(=O)N2CCOCC2)cc1	i
COc1cccc(-c2nc(CS(=O)(=O)c3ccccc3)no2)c1	0.2
(list continues)
SMILES	H5N1 antiviral
Fc1ccc2c(c1)C(c1ccc(N3CCOCC3)cc1)=NNC(c1cccs1)=N2	i
CCNc1nc(SC(C)C(=O)OC)nc(N2CCOCC2)n1 (stereo unspecified)	2.6
COc1ccc(CC(C)N2CCN(c3ccccc3OC)CC2)cc1OC (stereo unspecified)	0.4
CCOc1ccc(NC(=O)c2ccccc2OCC(=O)c2ccccc2)cc1	0.4
COc1cc(NC(=O)COC(=O)[C@@H]2CCCN2S(=O)(=O)c2ccc(Cl)cc2)cc(OC)c1OC	0.8
Cc1csc(SCC(=O)Nc2cc(S(=O)(=O)N3CCCC3)ccc2Cl)n1	1.2
CCOc1c2ccc(C(=O)NCc3ccco3)cc2nn1CCOC	1.8
O=C(CSc1ncn[nH]1)Nc1c(F)cc(F)cc1Br	2.7
COc1ccc(OC)c(/C(O)=C/C(=O)C(=O)Nc2ccccc2OC)c1	i
CC(=O)OCc1cc2cccc(C)c2[nH]c1=O	0.3
CC(C)NC1CS(=O)(=O)CC1O (stereo unspecified)	0.3
O=C(Cn1nc(C(=O)O)c2ccccc2c1=O)NCCC1=CCCCC1	0.5
COc1ccc(Cl)cc1NC(=O)CS(=O)(=O)c1cccc2nsnc12	i

Only part of the results is shown; rates above refer to the full screens.
